# Cruzain noTriton: qHTS Assay for Promiscuous and Specific Inhibitors of Cruzain (without detergent). Cruzipain (Trypanosoma cruzi), P25779. purified cruzain, Z-FR-AMC fluorescence, no detergent. Potency, µM, for the others: max response, negative = inhibition, most hits filed as inhibitors. 200,000 compounds, 2.3% hits;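 also: plate controls were enzyme without inhibitor for no effect and buffer without enzyme for full effect; nearly all actives have a fitted effect of over 40% in size; top concentration of the series not given in the record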
# Target sequence (P25779 123-467 limits assumed): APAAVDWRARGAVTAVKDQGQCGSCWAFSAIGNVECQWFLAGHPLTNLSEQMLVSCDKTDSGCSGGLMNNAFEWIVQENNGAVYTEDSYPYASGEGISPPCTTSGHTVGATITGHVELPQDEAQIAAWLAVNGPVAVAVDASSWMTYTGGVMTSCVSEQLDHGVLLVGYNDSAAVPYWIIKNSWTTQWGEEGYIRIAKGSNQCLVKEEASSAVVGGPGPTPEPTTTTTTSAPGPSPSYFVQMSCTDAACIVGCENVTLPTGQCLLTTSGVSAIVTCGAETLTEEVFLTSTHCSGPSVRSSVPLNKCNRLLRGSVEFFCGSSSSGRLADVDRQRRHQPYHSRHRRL
#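 Detergent-free condition (0.00005% Triton X-100) in acetate buffer pH 5.5 with DTT. 1.5 nM enzyme and compound were pre-mixed 15 min, then 2 uM Z-FR-AMC substrate added; reaction progress from fluorescence change between first and third reads (60 s).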
# Cruzain Triton: qHTS Assay for Promiscuous and Specific Inhibitors of Cruzain (with detergent); 200,000 compounds, 0.43% hits; purified cruzain, Z-FR-AMC fluorescence, 0.01% Triton; Cruzipain (Trypanosoma cruzi), P25779; Potency, µM, for inactives: max response, negative = inhibition, usual class: inhibitors; AID 1478, 2009;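 also: plate controls were neutral wells for no effect and buffer without enzyme for full effect; nearly all actives have a fitted effect of over 40% in size; top concentration of the series not given in the record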
#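 Sodium acetate buffer (100 mM, pH 5.5) containing 5 mM DTT and 0.01% Triton X-100 hosted 1.5 nM cruzain and test compound for 15 min at room temperature. Cleavage of 2 uM Z-FR-AMC was then tracked by fluorescence.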
# Marburg entry inh: qHTS for inhibitors of binding or entry into cells for Marburg Virus. Marburg virus pseudotyped entry inhibition, cell reporter; control for the full effect not named in the record; about a third of the inactives were read at about 46 µM. Potency, µM (highest dose often 37.8 µM), for inactives: at the top dose activity change, negative = inhibition, actives largely listed as inhibitors. 300,000 compounds, 1.8% hits. AID 540276, 2011; active = well fitted inhibition curve with a large enough effect; inconclusive = small, poorly fitted or top-dose-only effect, or effect the other way; inactive = flat fitted curve, though single readings scatter; tested in HEK293 cells; about a fifth of its hits are not listed in these tables; also: % is scaled to controls: 0 for no effect and ±100 for the full control effect; luciferase read-out
# LASV entry inh: qHTS for Inhibitors of binding or entry into cells for Lassa Virus | Lassa virus pseudotype entry inhibition, cell reporter; control for the full effect not named in the record | 300,000 compounds, 1.2% hits | Potency, µM (doses to about 37.9 µM), inactives show at the highest dose activity change, negative = inhibition, most hits filed as inhibitors; active means well fitted inhibition curve with a large enough effect; inconclusive means small, poorly fitted or top-dose-only effect, or effect the other way; inactive means flat fitted curve, though single readings scatter; tested in HEK293 cells; also: % is scaled to controls: 0 for no effect and ±100 for the full control effect; nearly all actives have a fitted effect of over 50% in size; luciferase read-out
# NS1 function inh: qHTS Assay for Inhibitors of Influenza NS1 Protein Function. AID 2326, 2010. 270,000 compounds, 0.4% hits. Potency, µM (series often up to 46.1 µM), for inactives: at the top dose activity, positive = more growth. S. cerevisiae slowed by influenza A NS1, growth recovery by OD600; active means well fitted rising curve with a large enough effect; inconclusive means small, poorly fitted or top-dose-only effect; inactive means no such curve, though single readings can be large or run the other way; also: nearly all actives have a fitted effect of over 50% in size
#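 OD600 was taken as the measure of yeast growth restored by compound in an NS1-expressing S. cerevisiae strain. Cells had been washed out of glucose medium and diluted 1:100 into galactose -URA medium, pH 6.0.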
# 2A StopGo: High Throughput Screening for Foot and Mouth Disease Virus Antivirals. Potency, µM (series often up to 57.9 µM), for the others: top-dose signal change, negative = less light. AID 1159524, 2015. 410,000 compounds, 1.2% hits. human cells with a luciferase reporter of 2A StopGo recoding; control for the full effect not named in the record; active = well fitted falling curve with a large enough effect; inconclusive = small, poorly fitted or top-dose-only effect; inactive = no such curve, though single readings can be large or run the other way; tested in HEK293T cells; also: % is scaled to controls: 0 for no effect and ±100 for the full control effect; nearly all actives have a fitted effect of over 45% in size; luciferase light after 4 h
# RE007 growth inh: qHTS Assay for Inhibitors of the HIV-1 protein Vpr | S. pombe RE007 Vpr strain, BacTiter-Glo ATP luminescence, 24 h; control for the full effect not named in the record | Potency, µM (series often up to 92.2 µM), for the others: top-dose activity change, negative = less growth | 360,000 compounds, 0.21% hits; active = well fitted falling curve with a large enough effect; inconclusive = small, poorly fitted or top-dose-only effect; inactive = no such curve, though single readings can be large or run the other way;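 also: % is scaled to controls: 0 for no effect and ±100 for the full control effect; nearly all actives have a fitted effect of over 50% in size; the assay follows cell death caused by Vpr and the record does not say whether a fall means rescue or toxicity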
#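 Fission yeast RE007 carrying one integrated HIV-1 vpr copy, seeded at OD 0.01 in PMG+AL medium with 23 nL pinned compound. Grown 24 h at 30 degrees; viability read by BacTiter-Glo luminescence after 5 min.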
# SARS PLP yeast: qHTS of Yeast-based Assay for SARS-CoV PLP | Potency, µM (titrated, usually from 32.9 µM), for the others: at the highest dose activity, positive = growth rescue | S. cerevisiae expressing SARS-CoV PLpro, growth rescue; control for the full effect not named in the record | 330,000 compounds, 0.19% hits; active means well fitted rising curve with a large enough effect; inconclusive means small, poorly fitted or top-dose-only effect; inactive means no such curve, though single readings can be large or run the other way; also: 0% is about no effect; nearly all actives have a fitted effect of over 55% in size; growth read by luminescence after 48 h
# The depositor's hits bear a star; ? = inconclusive; · = not tested or not shown; & = joins results of further samples; [ ] = another dose, or the depositor's remark. Unless noted, calls follow the shape of the dose curve; as a rule, active = well fitted curve in the direction sought with a large enough effect; inconclusive = small, poorly fitted or top-dose-only effect, or another doubt; inactive = no such curve, though single readings can be large; an effect the other way counts as inactive or inconclusive. Potency is read from the fitted curve at half-maximal effect.
Compound,Cruzain noTriton,Cruzain Triton,Marburg entry inh,LASV entry inh,NS1 function inh,2A StopGo,RE007 growth inh,SARS PLP yeast
FC(F)(F)/C(=N\P(=S)(N1CCOCC1)N1CCOCC1)N1CCOCC1,6%,4.4%,5%&3%,2%,-1%,12%,8%,-2%
Cc1c(NC(=O)Nc2ccc(Cl)c(Cl)c2)c(=O)n(-c2ccccc2)n1C,1%,12%,-6%,4%,-47%,-16%,6%,-38%
Fc1ccc(CNc2nc3c(-c4ccc(F)cc4)nnn3c3ccccc23)cc1,4%,0.7%,21%[46.1 µM],10%[46.1 µM],·,-4%,·,·
CC12CN3CC(c4ccccc4)(CN(C1)C31CCCCC1)C2=O,7%,-2.2%,0%,-1%,-6%,-11%,1%,0%
CC1CC(C)(C)N(C(=O)CN2C(=O)CCC2=O)c2ccccc21 (configuration not stated),·,·,10%[46.1 µM],15%,-15%,8%,-21%,1%
Cc1cc(NS(=O)(=O)c2c(C(=O)N3CCOCC3)c(C)n(C)c2C)ccc1Br,·,·,-24%[46.1 µM],-27%[46.1 µM],-10%,60%[activator],2%,2%
CC(C)CC(=O)NC(=S)Nc1sc2c(c1C(N)=O)CCC2,·,·,-18%[46.1 µM],1%,0%,47%[activator],-6%,-1%
CC(C)CC(=O)N1CCN(Cc2cccc([N+](=O)[O-])c2)CC1,·,·,·,·,0%,-13%,-7%,0%
CSc1ccc(/C=C/C(=O)NC23CC4CC(CC(C4)C2)C3)cc1,?,-12%,13%,-6%,14%,48%[activator],7%,16%
O=C(N/N=C/c1ccc([N+](=O)[O-])cc1)c1cnccn1,·,·,-3%,?,-6%,8%,-5%,1%
CN(C)C(=O)Oc1ccc2c(=O)c(Oc3ccccc3Br)coc2c1,·,·,-23%[46.1 µM],7%[46.1 µM],0%,8%,3%,1%
CC(=O)Nc1ccc(CN2CCN(CC(C)C)C(CCO)C2)cc1 (configuration not stated),·,·,-2%[46.1 µM],16%,-1%,18%,24%,1%
COc1ccc(NC(=O)N2CCC(NC(=O)c3ccco3)CC2)cc1,3%,7.3%,0%,-6%,-4%,17%,11%,0%
Cc1cccc(NS(=O)(=O)c2nnc(NC(=O)c3ccc(Cl)cc3)s2)c1,·,·,·,·,-35%,51%[activator],18%,9%
O=S1(=O)CC(O)C(N=Nc2c(O)n(Cc3ccccc3)c3ccccc23)C1 (configuration not stated),·,·,·,·,2%,10%,10%,0%
O=c1[nH]c(=S)[nH]nc1Cc1ccc(Cl)c(Cl)c1,·,·,-1%[46.1 µM],7%[46.1 µM],-1%,10%,2%,-5%
Cn1c(=O)c(-c2ccccc2)c(O)c2ccccc21,-16%,3.0%,·,·,·,-19%&-12%,-19%,2%
N#CC(=Nc1ccccc1)c1ccccc1,·,·,?,0%[46.1 µM],·,27%,-6%,·
O=C1N(C2CCCC2)C[C@@H]2C[C@@H](c3cccn3-c3nccs3)N3CCC[C@@]123,·,·,?,-3%,1%,-22%,-19%,-1%
Cc1cc(Br)ccc1NC(=O)CNC(=O)CSc1n[nH]c(N)n1,-1%,4.3%,21%,10%,-7%,1%,-31%,-1%
Fc1ccc(CN(Cc2ccccc2)C(c2cccs2)c2nnnn2C2CCCCC2)cc1 (configuration not stated),?,5.3%,?,?,4%,7%,61%,0%
CCn1cnc2sc(C(=O)N3CCN(Cc4ccc5c(c4)OCO5)CC3)c(C)c2c1=O,2%,3.2%,7%,·,-8%,·,·,3%
CCN(CC)C(=O)Cn1c(=O)n(-c2ccc(OC)cc2OC)c(=O)c2c(C)c(C(=O)N(CC)CC)sc21,-2%,4.4%,·,-3%[46.1 µM],·,-14%,·,·
O=C(C1=C[C@H](C2CC2)C[C@H](OCc2ccc(CO)cc2)O1)N1CCN(Cc2ccccc2)CC1,·,·,·,·,-8%,-10%,10%,-1%
O=C(Nc1ccc(Cl)c(C(F)(F)F)c1)C1CCCN(S(=O)(=O)c2cccc3cccnc23)C1 (configuration not stated),5%,-0.5%,·,5.6µM*,·,?,·,·
COc1ccc(/C=N/Nc2ccc(C(F)(F)F)cc2[N+](=O)[O-])cc1,2%,-3.9%,?,15%,-1%,-21%,-3%,-8%
CCc1cc(=O)oc2cc(C)cc(OC(C)C(=O)NCCN3CCOCC3)c12 (configuration not stated),·,·,7%[46.1 µM],13%[46.1 µM],3%,-6%,6%,-4%
Cc1ccc(-n2cc3c(=O)n(C)c(=O)n(C)c3c2)cc1C,-10%,-1.0%,-1%,9%,-13%,20%,0%,3%
COC(=O)c1ccccc1NC(=O)CSc1nnc(Cc2ccc(Cl)cc2)o1,10%,-13%,-5%,-2%,-52%,?,2%,-6%
COc1ccc(CCC(=O)Nc2cnc3ccccc3c2)cc1,·,·,?,-14%[46.1 µM],5%,45%[activator],-9%,7%
c1ccc(Cn2nnc3c(NCc4ccc5c(c4)OCO5)ncnc32)cc1,·,·,·,·,-6%,-19%,-3%,0%
CCc1ccccc1NC(=O)CSc1nnc(-c2cc(OC)c(OC)c(OC)c2)o1,-1%,-3.6%,9%[46.1 µM],6%[46.1 µM],·,-25%,·,·
COc1ccccc1/C=C(/C(=O)OCC(N)=O)c1ccccc1,3%,-2.1%,-3%,-23%,-1%,-13%,-8%,-16%
CCCNS(=O)(=O)/C=C/c1ccccc1,·,·,21%[46.1 µM],-14%,·,52%[activator],23%,-4%
CCC(=O)N1CCc2cc(Br)cc(S(=O)(=O)C3(C(=O)OC)CC3)c21,9%,0.5%,25%&25%,1%,-42%,-5%,-4%,?
COc1ccc(NC(=O)C(CCS(C)(=O)=O)N2C(=O)c3ccccc3C2=O)cc1 (configuration not stated),-5%,1.6%,-9%,1%,3%,-25%,-5%,-4%
CCOCc1c(C(=O)OCC(=O)/C(C#N)=C(\C)N)oc2ccccc12,·,·,?,?,·,-12%,1%,0%
CN(C)CC(C)(C)CNC(=O)C1CCN(CCCc2ccccc2)CC1,·,·,·,·,-11%,15%,8%,?
C=CCNC(=O)c1ccccc1NC(=O)COc1ccc(OC)cc1,·,·,13%,-20%,3%,-20%,17%,2%
Cc1ccc(N(Cc2ccc(C(=O)NCCSc3ccccn3)cc2)S(C)(=O)=O)cc1C,8%,-2.6%,-1%,15%,3%,-14%,·,-12%
CN(C(=O)CSc1nc2ccccc2c(=O)n1C)C1CCS(=O)(=O)C1 (configuration not stated),·,·,-2%[46.1 µM],12%[46.1 µM],·,-12%,-18%,3%
OCCNCc1cc(Br)ccc1OCc1ccc(F)cc1,·,·,?,?,-1%,-21%,-10%,0%
COC(=O)c1ccc(-n2nnnc2SCC(=O)N2CCCCC2)cc1,7%,-1.4%,11%,-3%,10%,-15%,-7%,7%
CCC(=O)N1CCC2(CC1)Oc1ccc(F)cc1C(=O)C21CC(c2ccc(Cl)cc2)=NO1 (configuration not stated),·,·,·,·,?,-25%,9%,0%
CN1CCN(c2ccc(Cl)cc2NC(=O)c2ccc(S(=O)(=O)N(C)C)cc2)CC1,-1%,5.1%,?,-3%,-1%,6%,3%,7%
CC(=O)C1=C(C)N(Cc2ccccc2)C(=O)N[C@@H]1c1cccc(C(F)(F)F)c1,-15%,-9.5%,?,-2%,2%,?,3%,-10%
Cc1ccc(C(=O)C(C)Sc2nnc(N)s2)cc1 (configuration not stated),·,·,29%,10%,·,-2%,-5%,-2%
COC(=O)/C(=C/c1cccc([N+](=O)[O-])c1)NC(=O)c1ccc(OC)cc1,1%,1.3%,0%,?,?,-2%,3%,22%
Cc1nc(N2CCN(C(c3ccccc3)c3ccccc3)CC2)[nH]c(=O)c1C,5%,2.9%,0%&0%,-6%,-6%,-5%,21%,6%
CCOc1ccc2cc(-c3nnc(Nc4ccccc4F)s3)c(=O)oc2c1,8%,1.3%,·,22%[46.1 µM],·,29%,·,·
CCOc1ccc(NC(=O)C2CCCN(S(=O)(=O)c3ccc(Br)s3)C2)cc1 (configuration not stated),1%,-3.1%,14%[46.1 µM],-18%[46.1 µM],·,-3%,·,·
CCc1ccc(OC)c(S(=O)(=O)Nc2ccc(Cc3ccncc3)cc2)c1,·,·,?,13µM*,-31%,19%,8%,-9%
O=C(Nc1ccccc1)C1=C(O)CC(c2ccoc2)CC1=Nc1ccccc1 (configuration not stated),?,-5.4%,-6%,-30%,18%,·,0%,-2%
CC1CN(CC(O)COc2ccc(C(C)C)cc2)CC(C)O1 (configuration not stated),2%,4.2%,23%,-5%,-10%,-18%,6%,-10%
CCCCC12CN3CCN(CC(C3)/C1=N\NC(=O)c1ccccc1N)C2,-5%,-0.4%,?,?,18%,31%[activator],3%,1%
CC(=O)Nc1ccc(-n2c(C)ccc2-c2ccccc2)cc1,·,·,?,-19%[46.1 µM],-7%,-23%,-12%,-7%
CCOc1ccc(-c2c[n+](=O)c3c(n2[O-])CCCC3)c(OCC)c1,1%,-5.5%,8%,1%,-1%,17%,-15%,-6%
Cc1ccc(CNC(=O)c2ccc(CSCc3ccccc3Cl)o2)cc1,-8%,-0.5%,·,-1%[46.1 µM],·,1%,·,·
O=C(NCCc1ccco1)C(=O)NCC1OCCCN1S(=O)(=O)c1cc(F)ccc1F (configuration not stated),·,·,25%,7%,18%,-11%,-10%,0%
CC(=O)N(CC1CCCO1)c1nnc(-c2ccccn2)s1 (configuration not stated),0%,1.0%,8%[46.1 µM],-23%,-10%,40%[activator],-12%,17%
COc1ccc(NC(=O)Cn2c(=O)n(-c3ccc(OC)c(OC)c3)c(=O)c3ccccc32)cc1,0%,0.9%,7%[46.1 µM],?,·,1%,·,·

# Compounds were not picked by outcome, and some 4.5% of all compounds hit somewhere here.
